From PubChem BioAssay
ugtP null kill = growth inhibition of S. aureus ugtP deletion strain | S. aureus RN4220 ugtP deletion, OD600 growth, 16 h; some inactives read as strong as hits | growth inhibition, % (test concentration not listed) | 330,000 tested, 0.54% active;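 active = z-score under -3 and OD600 up to 0.15 on both plates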;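 note: plate controls were untreated wells for no effect and antibiotic for full effect; wells of about 80 µL received 100 nL stock; the first replicate is given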
PrP 5UTR inh = inhibition of PrP 5' UTR reporter expression. cell-based PrP 5' UTR mRNA reporter, plate reader. inhibition, % (no concentration beside the values). 340,000 tested, 0.35% active. AID 488862;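 active = every replicate at 50% or more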;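 note: 0 = median of the neutral control wells; tested in H4 reporter cells; numbers are from one replicate; inactives centre near -14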
RN4220 kill = S. aureus RN4220 growth inhibition; AID 1259311; OD600, 16 h; inhibition, % (no concentration beside the values); 330,000 tested, 0.33% active;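 active = z-score of -3 or lower and OD600 up to 0.18 on both plates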;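 note: plate controls were untreated cells for no effect and reference antibiotic for full effect; stock transfer was 100 nL into about 80 µL; one replicate is shown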
Mtb hypoxia rep = reduces hypoxia-regulated biosensor signal in M. tuberculosis. M. tuberculosis hypoxia-regulated fluorescent reporter, fluorescence. fluorescence inhibition, % (test concentration not listed). 300,000 tested, 0.1% active;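 active = 35 to 45% if threefold the growth effect, above 45% if 1.5-fold the growth effect; inactive = the rest, general growth blockers included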;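 note: wells of about 50 µL received 100 nL stock; 0% = vehicle wells and 100% = reference inhibitor wells; whole bacteria with a GFP reporter of the hypoxia response; strong numbers were not always called active; many hits fall short of the cut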
Autofluor counter = flagged as autofluorescent in microsphere protease counterscreen | compound autofluorescence counterscreen, microsphere flow cytometry; stronger effect = higher value | 360,000 tested, 3.1% active | fluorescence intensity (test concentration not listed);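 active = at least 3 SD above the mean of all compounds, about 16000 in these data; inconclusive = too few beads counted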;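 note: 100 nL of 1 mM stock went into each well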
BJeLR lethal = kills HRASV12-expressing BJeLR cells | BJeLR (HRASV12) viability, CellTiter-Glo ATP luminescence, 48 h; reference of the scale not given here | AID 1554 | inhibition, % (no concentration beside the values) | 300,000 tested, 0.17% active;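 active = replicate mean above 50%; inconclusive = above 50% but judged a plate artefact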;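 note: 50 nL library stock added to about 25 µL; numbers are from one replicate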
Mtb hypoxia rep growth = second read-out of Mtb hypoxia rep, no call of its own (marks repeat the call); growth inhibition, %; measured here: M. tuberculosis growth (absorbance);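 0% = vehicle and 100% = reference antibiotic; read after six days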
The depositor's hits bear a star; u = inconclusive; x = not tested or not shown.

SMILES	ugtP null kill	PrP 5UTR inh	RN4220 kill	Mtb hypoxia rep	Mtb hypoxia rep growth	Autofluor counter	BJeLR lethal
CCOC(=O)C1C(=O)NCC2CCCC21 (configuration not stated)	4	-26	-7.9	9	4	2492	-4
COc1ccc(S(=O)(=O)N2CCC(C)CC2)cc1OC	3	-18	4.0	-3	-4	3936	-10
CC(=NNC(=O)c1c(C)nc2ccccn12)c1ccc(N2CCOCC2)cc1	-2	x	3.3	2	6	x	x
COc1ccccc1C(=O)O/N=C(\N)c1ccccc1Cl	3	-16	3.9	8	0	2532	10
O=C1C2C3CCC(C3)C2C(=O)N1Cc1ccccc1 (configuration not stated)	x	1	x	x	x	2889	-3
O=[N+]([O-])c1ccc(O)c(-c2nn[nH]n2)c1	-5	-21	5.3	x	x	2308	2
COc1ccccc1Nc1nc(N)nc(CSC(=S)N2CC(C)CC(C)C2)n1 (configuration not stated)	-14	-10	4.3	13	4	2500	1
Cn1nnc(NC(=O)c2ccco2)n1	5	-45	5.6	7	9	15702	-3
O=C(CSc1nc2c(c(=O)n1-c1ccc(Cl)cc1)SCC2)Nc1ccc2c(c1)OCCO2	-17	-23	8.1	-9	14	5258	x
CCn1c(CNC(=O)c2ccc(Cl)cc2)nnc1SCC(=O)N1CCOCC1	-3	3	-0.5	-3	11	4599	-4
O=C(CCc1ccc(O)c(O)c1)NN=Cc1ccc2c(c1)OCO2	-5	x	8.9	7	-2	x	x
Cn1c(Sc2ccccc2Cl)c(C=O)c2ccccc21	34	-4	-20	3	4	2321	-4
CCCCC1CCC(C(=O)Nc2ccc(N3CCOCC3)cc2N2CCOCC2)CC1 (configuration not stated)	4	-19	8.2	7	1	8792	x
Cc1ccc(/C=N/NC(=O)c2nnn(-c3nonc3N)c2-c2cccs2)cc1	x	3	x	x	x	4596	16
CC(C)c1ccc(C2NCc3ccccc3-n3cccc32)cc1 (configuration not stated)	74	-28	21	-7	2	4024	13
CCCS(=O)(=O)NCc1cn2c(C)csc2n1	-8	-34	-10	-2	-1	5845	-2
CSc1ccc(C2Nc3cccc4cccc(c34)N2)cc1	-4	-13	9.1	5	3	3135	-19
CCc1nnc(NC(=O)CSc2nnc(COc3ccccc3)n2Cc2ccccc2)s1	-8	-13	5.2	3	3	9426	-6
O=C(OC(C(=O)Nc1ccc(Cl)cc1C(F)(F)F)c1ccccc1)C1=COCCO1 (configuration not stated)	x	-5	x	x	x	2227	-8
S=C(NCCCn1ccnc1)NC1CCCCC1	-5	-3	-1.7	0	1	2485	-14
CN1C(=NO)c2cccc3cccc1c23	2	x	-14	9	7	x	x
Cc1ccc(NC(=O)Nc2nnc(-c3ccccc3)o2)cc1	0	-35	-0.5	-8	0	2447	1
CCOc1ccc(OCCn2c(SCC(=O)O)nc3ccccc32)cc1	6	10	0.0	-8	-6	3689	-3
Cc1nc2nc(C)c(CCC(=O)N3CCN(c4ccccc4)CC3)c(C)n2n1	5	2	2.4	4	6	8433	4
CC(=O)c1ccccc1OCCOc1ncnc2sccc12	x	-26	x	x	x	4208	-5
Cc1ccc(Cn2ccc(NC(=O)c3c(-c4ccccc4Cl)noc3C)n2)cc1	-11	4	9.7	-7	11	x	10
CCCCCCSc1ccc(-c2nc3ccc(Cl)cn3c2NC2CCCCC2)cc1	-13	-13	-0.2	3	7	4025	x
COCc1cc(C)nc(SCC(=O)Nc2ccccc2N2CCOCC2)c1C#N	10	-10	6.5	7	-9	6137	9
O=c1c2c(-c3ccccc3)csc2nc2c3ccccc3c(NCCN3CCOCC3)nn12	60	-30	91*	41*	24*	4402	0
Cc1ccccc1CSCC(=O)NC(=O)NC(C)(C)C	0	-18	7.7	4	-1	11241	-6
COc1ccc(C2CC(=O)C=C(c3cc(F)ccc3F)C2)cc1OC (configuration not stated)	-2	x	5.6	8	11	x	x
O=[N+]([O-])c1ccccc1NC(=S)NN=Cc1ccc(O)c(O)c1	-10	x	6.8	17	10	x	x
Cc1cc(NC(=O)CSc2nc3ccccc3[nH]2)no1	3	-4	0.9	10	3	4685	2
CCOC(=O)c1nc(N)c(C(=O)OCC)[nH]1	1	-6	-0.4	x	x	2694	-3
CC(=O)Oc1ccc2c(=O)c(Oc3ccccc3[N+](=O)[O-])coc2c1	x	-7	x	x	x	2526	-10
CCOC(=O)N1CCN(CC(=O)Nc2cc3c(cc2C(C)=O)OCO3)CC1	11	-13	1.8	x	x	5372	-3
Cc1ccc(-n2c3c(c(O)c(-c4ccccc4)c2=O)C(=O)CC(C)(C)C3)cc1	10	-11	3.4	-8	-6	2214	-8
CCOc1ccc(C=NNC(=O)c2cc3c(OC)cc(OC)c(OC)c3[nH]2)cc1	-21	x	-0.6	-9	3	x	x
Cc1ccc(S(=O)(=O)N(C)CCCC(=O)Nc2ccc(C)cc2C)cc1	-2	-23	-1.1	-3	5	2258	5
CCOC(=O)c1c(NC(=S)Nc2ccccc2)sc2c1CC(C)(C)SC2	-1	0	8.5	-5	2	5697	-5
CC(C)c1ccc(C(=O)COC(=O)C(O)c2ccccc2)cc1 (configuration not stated)	5	-19	4.8	18	5	3986	x
Cc1ccc(NC(=O)Cc2nc(COC(=O)C(C)NS(=O)(=O)c3ccc(C)cc3)cs2)cc1 (configuration not stated)	-6	x	0.8	-6	6	u	x
O=C(CSc1nnc(-c2ccco2)n1-c1ccccc1)N1CCOCC1	7	-24	2.5	6	4	10277	4
CCNC(=S)N=Nc1c(O)[nH]c2ccc([N+](=O)[O-])cc12	6	-4	7.2	3	0	3231	-4
Cc1ccc(/C=N/NC(=O)c2nn(C)cc2Cl)cc1	x	-62	x	x	x	2018	-10
CCCCCC(=O)Nc1ccc(C(=O)N/N=C/c2ccc([N+](=O)[O-])cc2)cc1	x	-23	x	x	x	10094	9
O=C(NCc1ccc2c(c1)OCO2)c1ccc(=O)[nH]c1	1	-3	3.1	x	x	2724	-3
O=C(O)Cn1nc(-c2ccccc2)c2ccccc2c1=O	0	-13	1.6	5	-8	4275	5
Cc1cc(C)n(C/C=C/Cn2nc(C)cc2C)n1	0	-14	8.4	8	6	20615*	0
COCCN(C(=O)CCC(=O)Nc1nccs1)C(C(=O)NCCC(C)C)c1ccc(OC)cc1 (configuration not stated)	10	-23	2.0	5	1	3785	-4
O=S1(=O)N=C2CCCCCN2C(c2ccc(Br)cc2)N1 (configuration not stated)	4	-23	4.5	14	-1	3205	16
O=C(NCCCc1ccccc1)c1ccc(Br)o1	-16	-21	-3.1	x	x	6285	-6
COc1ccc(-c2cnc3c(-c4ccc(F)cc4)cnn3c2N)cc1	8	x	0.7	-1	11	3654	-3
Cc1cc(NC2CCCCC2)nc2ccccc12	2	-11	7.3	-48	-9	2273	1
O=C(COc1ccc(-c2nnco2)cc1)Nc1c(Cl)cccc1C(F)(F)F	10	-22	2.9	2	9	5357	-10
Cc1ccc(C)n1-c1ccc(-c2ccnc(N)n2)cc1	4	-13	4.2	4	11	5641	x
C=CCON/C(CCC)=C1\C(=O)C(C(=O)OC)C(C)(C)CC1=NC (configuration not stated)	0	-8	-1.0	-6	7	4800	12
COc1ccc(C(=O)N2CC(=O)Nc3ccc(F)cc3C2c2ccccc2)cc1 (configuration not stated)	4	-24	-2.9	-10	3	4344	-1
C[C@H](CO)N1C[C@H](C)[C@@H](CN(C)S(=O)(=O)c2cccs2)Oc2c(NS(=O)(=O)c3cn(C)cn3)cccc2C1=O	-6	-22	-11	4	18	4385	x
O=S(=O)(c1ccc2ccccc2c1)N1CCN(C(=S)Nc2ccc(F)cc2)CC1	76	-5	-8.7	6	1	2358	6

Continued.
SMILES	ugtP null kill	PrP 5UTR inh	RN4220 kill	Mtb hypoxia rep	Mtb hypoxia rep growth	Autofluor counter	BJeLR lethal
Cc1cc(C(=O)NCc2ccccc2Br)no1	0	-8	2.3	20	14	21781*	2
N#CC1=C(N)S[C@@H](C(=O)c2ccc(F)cc2)[C@@H]1c1cccs1	22	-20	21	14	9	4538	6
COc1ccccc1NC(=O)CSc1nnnn1Cc1ccccc1	8	4	3.8	-2	-2	8080	-4
O=C(c1ccccc1)N1CCN(CC(O)COCC2CC=CCC2)CC1 (configuration not stated)	11	-12	1.3	15	11	3810	-4
CC1CCN(CCC(=O)Nc2ccc(F)c(F)c2)CC1	7	-30	4.7	11	0	4270	-24
COc1cccc(N(CC(=O)N/N=C(\C)c2cccs2)S(C)(=O)=O)c1	x	-10	x	x	x	2192	-2
Cc1cc(C)n(CC(O)CN(c2ccccc2)S(=O)(=O)c2ccc3ccccc3c2)n1 (configuration not stated)	9	-17	3.3	-2	1	2447	-7
Cc1nc([N+](=O)[O-])nn1C12CC3CC(CC(Cl)(C3)C1)C2	x	-44	x	x	x	2247	4
CC(=NNC(=O)c1nnn(-c2nonc2N)c1C)c1ccc(OCc2ccccc2)cc1	-2	x	1.9	0	-7	x	x
COc1ccc(COC(=O)C2=C(C)NC(=O)NC2c2ccc(O)cc2)cc1 (configuration not stated)	2	-22	-0.8	5	5	x	8
Cc1cccc(C)c1C(=O)NC(Cc1ccccc1)C(=O)O (configuration not stated)	-4	x	8.3	1	-2	x	x
CC(=O)c1cc(-c2ccccc2)n(CCC(=O)NC2CCCCCC2)c1C	6	-24	4.2	16	3	2678	-6
O=S(=O)(NC1CCCCC1N1CCOCC1)c1ccc(Cl)cc1 (configuration not stated)	1	-22	5.0	11	-2	4122	4
Clc1ccc(Nc2ccc(Cl)nn2)cc1	-3	-19	-1.4	7	13	x	-5
COc1cc(O)c2c(=O)c(-c3ccc(O[C@@H]4O[C@H](CO)[C@@H](O)[C@H](O)[C@H]4O)cc3)coc2c1	6	x	5.5	8	7	3185	-7

Among those listed so far, these contain an NH in an aromatic ring.
SMILES	ugtP null kill	PrP 5UTR inh	RN4220 kill	Mtb hypoxia rep	Mtb hypoxia rep growth	Autofluor counter	BJeLR lethal
O=[N+]([O-])c1ccc(O)c(-c2nn[nH]n2)c1	-5	-21	5.3	x	x	2308	2
Cc1cc(NC(=O)CSc2nc3ccccc3[nH]2)no1	3	-4	0.9	10	3	4685	2
CCOC(=O)c1nc(N)c(C(=O)OCC)[nH]1	1	-6	-0.4	x	x	2694	-3
CCOc1ccc(C=NNC(=O)c2cc3c(OC)cc(OC)c(OC)c3[nH]2)cc1	-21	x	-0.6	-9	3	x	x
CCNC(=S)N=Nc1c(O)[nH]c2ccc([N+](=O)[O-])cc12	6	-4	7.2	3	0	3231	-4
O=C(NCc1ccc2c(c1)OCO2)c1ccc(=O)[nH]c1	1	-3	3.1	x	x	2724	-3

Part of the list above, reduced to Mtb hypoxia rep.
SMILES | Mtb hypoxia rep
COc1ccc(COC(=O)C2=C(C)NC(=O)NC2c2ccc(O)cc2)cc1 (configuration not stated) | 5
Cc1cccc(C)c1C(=O)NC(Cc1ccccc1)C(=O)O (configuration not stated) | 1

(cont.)
SMILES	ugtP null kill	PrP 5UTR inh	RN4220 kill	Mtb hypoxia rep	Mtb hypoxia rep growth	Autofluor counter	BJeLR lethal
Cc1ccc(NC(=O)c2ccc(Cl)c(N3C(=O)CCC3=O)c2)cc1	8	-11	4.3	-1	1	5430	4
COc1ccccc1Oc1c(C)oc2c(CN3CCN(CCO)CC3)c(O)ccc2c1=O	-10	-23	-5.3	5	4	x	3
CCCCn1c(=O)c(C(=O)Nc2ccccc2N)c(O)c2ccccc21	5	-16	5.8	10	7	3290	-4
Cc1nn(-c2ccccc2)c(C)c1NC(=O)COC(=O)CCc1ccccc1	14	-23	5.8	8	-1	5114	2
O=S1(=O)CCOC[C@H](c2ccccc2)N1Cc1ccccc1F	x	-16	x	x	x	3955	-5
CCc1ccccc1NC(=O)C1(S(=O)(=O)c2ccc(C)cc2)CC1	3	-12	3.0	0	-4	5992	2
Cc1ccccc1-n1c(-c2ccncc2)n[nH]c1=S	2	-14	0.7	8	4	3878	20
CCOC(=O)C1CCN(Cc2cc(C(C)(C)C)c(O)c(C(C)(C)C)c2)CC1	1	4	-1.7	5	-8	4256	8
Fc1ccc(Nc2nc(NCc3ccco3)c3ccccc3n2)cc1	-69	-30	-14	-13	-8	5233	-4
CC1CCN(C(=O)C2CCN(S(=O)(=O)N3CCC4(CC3)OCCO4)CC2)CC1	-1	-2	1.3	-6	-6	6001	-1
COC(=O)c1cc(=O)n(Cc2ccco2)c(=Nc2ccc(F)c(Cl)c2)s1	-10	3	-17	9	12	5742	-10
CCC(NC(=O)OCc1ccccc1)C(=O)Oc1ccc2ccc(=O)oc2c1 (configuration not stated)	16	-30	-0.4	-7	4	3727	-3
Cc1nc([N+](=O)[O-])c(C(=O)OCc2ccccc2F)n1C	11	-19	4.1	9	9	4160	-7
